# From PubChem
# CBX7 inh: CBX7 chromodomain binding inhibitors, primary screen, biochemical, AlphaScreen. Chromobox protein homolog 7 (Homo sapiens), O95931. AlphaScreen His6-CBX7 / biotin-H3K27me3 peptide binding; hits give low values. normalised signal (fraction of DMSO) (test concentration not listed). actives 1.1% (n = 66,000); in the data active = normalised signal below about 0.5;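 note: 100 nL library stock added to about 20 µL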
# Target sequence (O95931 whole entry, looked up): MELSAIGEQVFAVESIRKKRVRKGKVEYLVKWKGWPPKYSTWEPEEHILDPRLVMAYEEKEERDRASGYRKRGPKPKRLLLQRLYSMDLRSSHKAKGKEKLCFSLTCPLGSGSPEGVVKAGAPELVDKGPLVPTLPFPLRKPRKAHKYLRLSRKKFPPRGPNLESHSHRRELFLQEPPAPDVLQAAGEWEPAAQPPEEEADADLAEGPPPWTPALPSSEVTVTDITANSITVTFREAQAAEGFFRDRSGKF
# CBX7 inh z-score: second read-out of CBX7 inh, no call of its own (marks repeat the call); z-score; measured here: z-score of CBX7 signal; some inactives read as strong as hits; reference of the scale not given here;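 same signal on another scale; lower means less binding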
# Numbers without * were called inactive; & = joins results of further samples.
SMILES,CBX7 inh,CBX7 inh z-score
Cc1ccccc1NC(=O)C1CCCN1S(=O)(=O)c1ccc2c(c1)n(C)c(=O)c(=O)n2C (stereo not drawn),1.2,1.7
CC1=Nc2cc(C(=O)NCCCOC(C)C)ccc2Sc2ccc(Cl)cc21,0.92,-2
O=C1CC(c2ccccc2Br)C2=C(CCCC2=O)N1 (stereo not drawn),0.98,-0.26
O=C(O)c1ccc(-c2nnc(-c3ccccc3Cl)o2)cc1,1.1,0.48
COc1cccc2sc(N3CCOCC3)nc12,1,0.066
COc1cc2c(cc1OC)C(c1cc(C)ccc1C)CC(=O)N2 (stereo not drawn),0.88,-1.5
O=C(NCCc1ccccc1)c1cc2sccc2n1Cc1ccc(Cl)cc1,1,0.77
Cc1cccc(NC(=O)c2sc(-c3ccccc3)nc2C)c1,1,0.097
O=C(C1CCN(S(=O)(=O)c2cccc3cccnc23)CC1)N1CC=C(c2ccccc2)CC1,0.79,-2.7
CCOc1ccc(CCNC(=O)c2csc3c2CCCC3)cc1,1,0.17
Cc1c(C(=O)NCc2ccccc2)oc2ccc(S(=O)(=O)N3CCCC3)cc12,1,0.11
CCCCNC(=O)CN1CCN(Cc2ccc(F)cc2)C1=O,1,0.055
O=C(c1ccc2c(c1)N(Cc1ccccc1Cl)C(=O)c1ccccc1S2)N1CCCC1,0.87,-3.2
Cc1ccc(-c2cnc3ccccc3n2)c(C)c1,1.1,3.6
COc1ccc(-c2noc(CCC(=O)N3CCN(c4cccc(C)c4)C(C)C3)n2)cc1 (stereo not drawn),0.89,-2.9
Cc1onc(-c2c(Cl)cccc2Cl)c1C(=O)NCc1ccc2c(c1)OCO2,1.1,2.6
CCc1ccc(NC(=O)CN(c2ccc(C)cc2)S(=O)(=O)c2cccnc2)cc1,0.95,-1.3
CC1CCN(c2nc3ccc(C(=O)NCCc4ccc(Cl)cc4)cc3s2)CC1,1,0.14
COc1ccc(OC)c(NC(=O)c2cc3c(s2)-c2c(C)cccc2OC3)c1,1.1,3.3
CCOC(=O)N1CCC(Nc2c(N3CCCCC3C)c(=O)c2=O)CC1 (stereo not drawn),1.1,1.9
CCOc1ccc2nc(N3CCC(C(=O)N4CCCCCC4)CC3)sc2c1,1,1.8
Cc1ccccc1Nc1c(-c2ccsc2)nc2cnccn12,1.2,2.4
CCOC(=O)c1cnc2ccc(OC)cc2c1Nc1ccccc1Cl,0.63,-1.6
COc1ccc(-c2nc(Cn3c(SCc4ccc(F)cc4)nc4ccncc43)c(C)o2)cc1,0.87,-3.3
COc1ccc(C2=NN(CC(=O)Nc3cccc(C)c3C)C(=O)CC2)cc1,1.1,1.1

# The listing continues.
SMILES,CBX7 inh,CBX7 inh z-score
COC(=O)c1ccccc1NC(=O)c1cc2c(s1)-c1ccccc1OC2,2,48
Cc1ccc(C(C(=O)NC2CCCC2)N2CCCC(C)C2)cc1 (stereo not drawn),0.96,-1.1
CC(C)c1ccc(NC(=O)C(NS(=O)(=O)c2cccs2)C(C)C)cc1 (stereo not drawn),1.1,1.5
CCCSc1oc(-c2cccs2)nc1S(=O)(=O)c1ccc(Cl)cc1,0.98,-0.035
CCCNC(=O)Cn1cnc2sc(C(=O)Nc3cccc(OC)c3)c(C)c2c1=O,0.99,-0.43
Cc1ccc(OCC(=O)Nc2cc(-c3nc4ncccc4o3)ccc2Cl)cc1C,1.2,1.1
COc1ccc(-n2nc3c(c2NC(=O)c2ccc(S(=O)(=O)N4CCCC4)cc2)CSC3)cc1,0.86,-2.6
Cc1cccc2c1-c1sc(C(=O)NCCN(C)C3CCCCC3)cc1CO2,1.3,7.4
CCOc1ccc(-c2nc(CSCC(=O)N3CCOCC3)c(C)o2)cc1,1,0.25
CCOC(=O)c1c(C)n(-c2ccc(C)cc2)c2ccc(OCC(O)CN3CCN(C)CC3)cc12 (stereo not drawn),0.67,-6.9
CC1CCCN(CC(O)COc2ccc(C3CCCCC3)cc2)C1 (stereo not drawn),1.1,0.96
Cc1cc2nn(-c3ccccc3)nc2cc1NC(=O)c1cccnc1,1.2,1.1
O=S(=O)(c1ccc2c(c1)OCCO2)N(CCCN1CCOCC1)Cc1cccs1,0.71,-3.3
Cc1cccc(C(=O)Nc2ccc3oc(-c4cccnc4)nc3c2)c1,1,0.047
CCOC(=O)c1cccc(N2C(=O)Cn3cccc3C2C(=O)NC2CCCCC2C)c1 (stereo not drawn),0.97,-0.54
COc1cccc(NC(=O)C2CCCN(S(=O)(=O)c3c(C)noc3C)C2)c1 (stereo not drawn),1,0.22
COc1cccc(-c2nn(C)c3sc(C(=O)Nc4nc5ccc(OC)cc5s4)cc23)c1,0.85,-1.9
N#CC1=C(N)Oc2n[nH]c(-c3ccc([N+](=O)[O-])cc3)c2C1c1ccc(O)cc1 (stereo not drawn),0.96,-2.2
Cc1ccc(Nc2nc(-c3ccc(F)c(C)c3)cs2)nc1,0.84,-1.9
Cc1cccc(OCC(=O)Nc2ncc(Cc3cccc(C(F)(F)F)c3)s2)c1,1,0.98
COc1ccc(C(=O)Nc2c3c(nn2-c2ccc(OC)cc2)CS(=O)(=O)C3)cc1,0.81,-2.2
CCOc1ccc(S(=O)(=O)NCCc2c(C)[nH]c3ccc(C)cc23)cc1,0.96,-0.54
CCc1ccc(NS(=O)(=O)c2ccc3[nH]cc(C(=O)N4CCc5ccccc54)c(=O)c3c2)cc1,1.1,0.43
COC(=O)CSc1nnc(Cc2cc(=O)[nH]c(=O)[nH]2)n1-c1ccccc1,1,0.83
O=C(c1cccc(Nc2nc(-c3ccccc3)c3cc(Cl)ccc3n2)c1)N1CCOCC1,1.1,2.2

# Reprinted from the part before: 2 compounds; new compounds follow.
SMILES,CBX7 inh,CBX7 inh z-score
COC(=O)CSc1nnc(Cc2cc(=O)[nH]c(=O)[nH]2)n1-c1ccccc1,1,0.83
O=C(c1cccc(Nc2nc(-c3ccccc3)c3cc(Cl)ccc3n2)c1)N1CCOCC1,1.1,2.2
CCCOc1ccc(N2C(=O)CC(N3CCN(C(c4ccccc4)c4ccccc4)CC3)C2=O)cc1 (stereo not drawn),0.91,-1.2
Cc1ccc(Nc2nc(-c3ccccc3)c3cc(Br)ccc3n2)c(C)c1,1.7,11
O=S(=O)(c1cnc[nH]1)N1CCN(c2ccccc2)CC1,1,0.17
CCOC(=O)C1CCCN(C(=O)C2CCN(Cc3nc(-c4ccc(Cl)cc4)oc3C)CC2)C1 (stereo not drawn),1.1,1.5
CC(=O)Nc1nonc1-c1nc2ccccc2n1CC#N,1.1,2.1
CC(C)c1ccc(OCC(=O)Nc2c(C(=O)c3ccccc3)oc3ccccc23)cc1,1,0.1
c1ccc(-c2nnc3ccc(N4CCN(C5CCCCC5)CC4)nn23)cc1,0.92,-1.9
Cc1nc(SCC(=O)Nc2ccc(Br)cn2)n[nH]1,1.1,1.9
COc1ccc(OC)c(/C=C/c2nc3ccccc3c(=O)n2-c2ccc(C)c(C)c2)c1,1.3,9
Cc1ccc(OCc2nc(-c3ccccn3)no2)cc1,1,0.93
COc1ccc(CCNC(=O)Cn2nnc(-c3ccccc3F)n2)cc1OC,1.2,3.8
CCOc1ccc(C2C(N3C(=O)c4ccccc4C3=O)C(=O)N2c2ccc(Cl)cc2C)cc1 (stereo not drawn),0.92,-2.3
CCOC(=O)c1cnc2ccc(OCC)cc2c1Nc1ccc(Br)cc1C,1,0.18
Cc1cc2nc(Cc3ccccc3Cl)c(=O)n(C)c2cc1C,0.99,-0.23
Cc1nc2cc(-c3ccccc3)nn2c(C)c1CCC(=O)Nc1cccnc1,1,-0.089
NS(=O)(=O)c1ccc(NC(=O)CSc2nnc3c4ccccc4n(CCc4ccccc4)c3n2)cc1,1.1,0.19
Clc1ccc2nc(-c3cccnc3)c(NC3CCCCC3)n2c1,1.1,0.69
CC(C)N1C(=O)c2ccccc2C1C(=O)NC1CCCC1 (stereo not drawn),0.89,-1.3
O=c1nc(-c2ccc(Cl)cc2)c2ccccc2[nH]1,1&1,0.82&0.18
Cc1cccc(Nc2nc(-c3ccccc3)c3cc(C)ccc3n2)c1,2,19
Cc1ccc(-c2noc(CCC(=O)N(C)c3cccc(Cl)c3)n2)cc1,1.1,2.7
CC(=O)N(C)c1ccc(NC(=O)c2c(-c3ccccc3Cl)noc2C)cc1,1,0.24
Cn1cc(CC(=O)NC2CCN(Cc3ccccc3)CC2)c2ccccc21,1,0.57
COc1cc(C)ccc1OCCn1c(-c2ccc(Cl)cc2)nc2ccccc2c1=O,1.2,1.4
CCc1ccccc1NC(=O)c1cc2c(n(-c3ccc(C)cc3)c1=O)CC(C)(C)CC2=O,1.1,0.67

# The results go on.
SMILES,CBX7 inh,CBX7 inh z-score
Cc1ccc(CN2C(=O)c3ccccc3C2C(=O)NC2CCCC2)cc1 (stereo not drawn),1,0.23
Cc1ccccc1-c1nc(CN2CCC(C(=O)NCCCOC(C)C)CC2)c(C)o1,0.84,-2.4
CCOc1ccc(-n2c(Cc3cc(=O)[nH]c(=O)[nH]3)nnc2SCC(=O)NCC2CCCO2)cc1 (stereo not drawn),1,0.37
Oc1cccc(Nc2nc(-c3ccc(Cl)cc3)nc3ccccc23)c1,0.75,-0.33
Cc1nc2c(-c3ccc(F)cc3)c(C)nn2c(C)c1CCC(=O)NCc1ccccc1Cl,1,0.35
Cc1ccccc1N(C)C(=O)Cn1nc(Cc2ccncc2)c2ccccc2c1=O,1,0.34
Fc1cccc(Nc2nc(-c3ccccc3Cl)nc3ccccc23)c1,1.1,1.4
Cc1c(C(=O)N2CCCC(C)C2)sc2ncnc(N3CCN(c4ccccc4F)CC3)c12 (stereo not drawn),1.1,1.5
CC1CCCCC1NC(=O)c1ccc2c(c1)N(Cc1cccc(Cl)c1)C(=O)CS2 (stereo not drawn),1,1.2
COc1ccccc1CNC(=O)c1nc(-c2ccc(C)cc2)oc1C,1,0.99
Cc1ccc(Nc2c(-c3cccc(Br)c3)nc3cc(C)ccn23)cc1,0.79,-7.7
COc1ccccc1NC(=O)c1cnc2sccn2c1=O,1,0.46
Cc1ccccc1NC(=O)CCNC(=O)Cn1ccc2ccccc2c1=O,1.1,1.5
COCc1nc2ccccc2n1CCOc1ccc(Br)cc1,1,0.9
Cc1ccc(CSc2nc3ccncc3n2Cc2nc(-c3ccccc3Cl)oc2C)cc1,0.78,-3.1
CCCC(=O)Nc1nnc(Cc2ccccc2)s1,1,0.68
Cc1ccc(-c2n[nH]c3c2C(c2ccc(C)cc2)NC3=O)cc1 (stereo not drawn),0.82,-5.9
O=C(Nc1c2c(nn1-c1ccc(Cl)cc1)CSC2)c1ccc(Br)cc1,0.91,-2.1
Cc1ccc(Cn2nnc3c(=O)n(Cc4ccccc4C)cnc32)cc1,0.85,-2.4
COc1ccccc1CNC(=O)c1cnn(-c2ccccc2)c1-n1cccc1,0.62,-15
COc1ccc(CCNC(=O)c2ccc3c(=O)n4c(nc3c2)CCCCC4)cc1OC,0.95,-0.063
CC(=O)Nc1nc(C)c(-c2csc(Nc3ccccc3)n2)s1,0.51,-0.58
COc1ccc(NC2c3ccccc3C(=O)N2Cc2ccccc2Cl)cc1 (stereo not drawn),0.82,-0.45
CCn1c(C(=O)Nc2ccc(F)cc2)cc2sc(Cl)cc21,0.91,-3.5
Cc1ccc(-n2cc(C(=O)N3CCC4(CC3)OCCO4)c3ccccc3c2=O)cc1C,1,1.3

# Later entries
SMILES,CBX7 inh,CBX7 inh z-score
Cc1cc(N2CC(C)CC(C)C2)nc2ccc(NC(=O)CCC(=O)NCCCN3CCOCC3)cc12 (stereo not drawn),1,0.91
Cc1cccc(Cn2c(CN3CCOCC3)nc3c2c(=O)[nH]c(=O)n3C)c1,1,0.12
Cc1cccc(C)c1Nc1c(-c2cccs2)nc2cnccn12,1.1,0.76
COc1ccc(NS(=O)(=O)c2cnc[nH]2)cc1OC,1.1,2.2
CCN(CC)c1nc2c(s1)C(=O)NCC(C)(C)C2,0.95,-1.4
CC(NC(=O)c1ccc2c(c1)N(Cc1ccccc1F)C(=O)c1ccccc1S2=O)c1ccccc1 (stereo not drawn),0.83,-2.5
CC(C)CCNC(=O)c1nnc(Cc2ccc(F)cc2)o1,0.81,-2.1
CCN1C(=O)c2ccccc2S(=O)c2ccc(C(=O)N3CCOCC3)cc21 (stereo not drawn),1.1,1.8
O=C(CCCN1CCc2ccccc2C(c2ccccc2)C1)c1ccc(F)cc1 (stereo not drawn),1.2,3.5
COc1ccc(C2C(C(=O)Nc3cc(C)ccn3)=C(C)NC3=C2C(=O)CC(C)(C)C3)cc1 (stereo not drawn),1.3,0.71
CCCCN(CCCC)S(=O)(=O)c1ccc2oc(C(=O)N3CCOCC3)c(C)c2c1,0.79,-2.3

# Structural class: the entries above with a thiophene ring, fused or not
SMILES,CBX7 inh,CBX7 inh z-score
O=C(NCCc1ccccc1)c1cc2sccc2n1Cc1ccc(Cl)cc1,1,0.77
CCOc1ccc(CCNC(=O)c2csc3c2CCCC3)cc1,1,0.17
COc1ccc(OC)c(NC(=O)c2cc3c(s2)-c2c(C)cccc2OC3)c1,1.1,3.3
Cc1ccccc1Nc1c(-c2ccsc2)nc2cnccn12,1.2,2.4
COC(=O)c1ccccc1NC(=O)c1cc2c(s1)-c1ccccc1OC2,2,48
CC(C)c1ccc(NC(=O)C(NS(=O)(=O)c2cccs2)C(C)C)cc1 (stereo not drawn),1.1,1.5
CCCSc1oc(-c2cccs2)nc1S(=O)(=O)c1ccc(Cl)cc1,0.98,-0.035
CCCNC(=O)Cn1cnc2sc(C(=O)Nc3cccc(OC)c3)c(C)c2c1=O,0.99,-0.43
Cc1cccc2c1-c1sc(C(=O)NCCN(C)C3CCCCC3)cc1CO2,1.3,7.4
O=S(=O)(c1ccc2c(c1)OCCO2)N(CCCN1CCOCC1)Cc1cccs1,0.71,-3.3
COc1cccc(-c2nn(C)c3sc(C(=O)Nc4nc5ccc(OC)cc5s4)cc23)c1,0.85,-1.9
Cc1c(C(=O)N2CCCC(C)C2)sc2ncnc(N3CCN(c4ccccc4F)CC3)c12 (stereo not drawn),1.1,1.5
CCn1c(C(=O)Nc2ccc(F)cc2)cc2sc(Cl)cc21,0.91,-3.5
Cc1cccc(C)c1Nc1c(-c2cccs2)nc2cnccn12,1.1,0.76

# An excerpt; count on the stated rates, not on these rows.
